Rango-impB inh = prevents formation of the Rango-importin beta complex. Q14974. Rango CFP/YFP FRET sensor + importin beta, 45 min. Potency, µM (top dose mostly 92.2 µM), for inactives: at the top dose inhibition of complex formation. 0.031% of 340,000 active; active = rising FRET ratio curve, often small or poorly fitted; inconclusive = mostly compound fluorescence or quenching in the first reads; inactive = flat curves in all reads;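 also: potency is read from the fitted curve at half-maximal effect; 0% = DMSO wells and 100% = buffer wells lacking importin beta; nearly all actives have a fitted effect of over 15% in size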
Target sequence (Q14974 whole entry, looked up): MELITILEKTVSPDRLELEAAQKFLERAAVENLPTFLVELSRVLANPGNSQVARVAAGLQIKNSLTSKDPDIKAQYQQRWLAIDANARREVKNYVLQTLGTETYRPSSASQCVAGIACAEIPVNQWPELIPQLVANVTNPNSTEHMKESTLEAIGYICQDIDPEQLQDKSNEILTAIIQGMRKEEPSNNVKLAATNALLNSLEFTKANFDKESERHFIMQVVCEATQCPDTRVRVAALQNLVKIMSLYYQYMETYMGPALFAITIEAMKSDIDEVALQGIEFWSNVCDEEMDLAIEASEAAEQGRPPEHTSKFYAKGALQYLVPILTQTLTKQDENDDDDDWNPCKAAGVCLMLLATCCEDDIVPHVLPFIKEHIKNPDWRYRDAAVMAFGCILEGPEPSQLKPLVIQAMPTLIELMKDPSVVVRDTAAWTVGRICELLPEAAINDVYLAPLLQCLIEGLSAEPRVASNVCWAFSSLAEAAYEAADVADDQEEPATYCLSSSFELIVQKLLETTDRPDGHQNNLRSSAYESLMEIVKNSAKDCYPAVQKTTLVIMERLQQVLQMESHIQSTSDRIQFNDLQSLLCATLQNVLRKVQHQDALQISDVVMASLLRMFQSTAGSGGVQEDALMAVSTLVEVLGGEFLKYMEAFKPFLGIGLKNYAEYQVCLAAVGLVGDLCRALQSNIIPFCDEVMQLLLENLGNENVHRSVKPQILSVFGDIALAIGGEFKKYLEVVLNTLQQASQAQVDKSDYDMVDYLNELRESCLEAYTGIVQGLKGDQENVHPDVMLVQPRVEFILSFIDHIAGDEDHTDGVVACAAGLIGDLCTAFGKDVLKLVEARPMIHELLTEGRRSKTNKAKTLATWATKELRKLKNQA
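FRET biosensor (snurportin 1 IBB flanked by EYFP and cerulean), 50 nM, with compound 5 min, then 0.125 microM importin beta in PBS, 1 mM DTT, 0.02% Tween-20, 0.1% BSA. CFP/YFP ratio read after 45 min at room temperature; pre-read flags interference.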
Rango release inh = prevents RanGTP from dissociating the Rango-importin beta complex; O95149+P62826; Biochemical FRET Rango-importin beta, RanGTP-induced dissociation; AID 540253; Potency, µM (titrated, usually from 46.1 µM), for inactives: top-dose activity change, negative = inhibition; 0.071% of 340,000 active; active means falling FRET ratio curve, often poorly fitted, with flat reads before Ran was added; inconclusive means other falling curves, or compound fluorescence or quenching; inactive means flat or rising ratio curve;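 also: potency is read from the fitted curve at half-maximal effect; % of control where 0% means no effect; nearly all actives have a fitted effect of over 45% in size; -100% = wells without RanGTP and RCC1; the record marks most hits as doubtful in a second field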
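Rango/importin beta premix (0.1/0.25 uM final), PBS + 1 mM DTT + 0.02% Tween-20 + 0.1% BSA; cpd 5 min RT; FRET pre-read; + RanGTP-RCC1 (0.6 uM Ran, 2 mM GTP, 0.2 uM RCC1); 45 min RT; FRET post-read, ex 430, em 486/530 nm.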
GLA inh pH 4.5 = alpha-galactosidase A (human) inhibition, pH 4.5; purified enzyme, 4-MU-alpha-Gal fluorescence, pH 4.5; activity change, negative = inhibition, % at 105 µM; 230,000 tested, under 10 active; AID 1467; inconclusive = small, poorly fitted or top-dose-only inhibition, or a rising curve; inactive = flat fitted curve, though single readings scatter; no compound was filed as active;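 also: 0% = full activity with enzyme and -100% = basal without enzyme; dose as in the result columns while the protocol names 77 µM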
miR-21 reporter = raises the signal of a miR-21 reporter. HeLa miR-21 FLuc reporter, luciferase, 48 h. Potency, µM (top dose mostly 38.3 µM), for inactives: top-dose reporter change, positive = more light. 340,000 tested, under 10 active; active = well fitted rising curve with a large enough effect; inconclusive = small, poorly fitted or top-dose-only effect; inactive = no such curve, though single readings can be large or run the other way;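 also: % of control where 0% means no effect; miR-21 action dims this reporter so a rising signal means less miR-21 action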
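Compounds were titrated across several concentrations (up to approximately 40 uM) and incubated 48 hours with HeLa miR-21-FLuc reporter cells (miR-21 target sequence downstream of FLuc, endogenous miR-21). Readout was firefly luciferase luminescence after lytic detection reagent.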
* marks the source's active call; other numbers are inactive results; u = inconclusive; x = not tested or not shown; & = joins results of further samples; [ ] = remark or other dose. The list is partial. The share of hits here may be higher or lower than overall.

SMILES | Rango-impB inh | Rango release inh | GLA inh pH 4.5 | miR-21 reporter
COCc1nnc(NC(=O)c2ccc(OC)cc2OC)s1 | -1.0% | 4% | 2 | -46%
COC(=O)c1ccc(C(=O)OC)c(NC(=O)C2CC(=O)N(C3CCCC3)C2)c1 (configuration not stated) | 1.3% | 3% | x | x
Cc1ccc(NC(=O)C2CCN(S(=O)(=O)c3cnc[nH]3)CC2)cc1C | 2.0% | 3% | 3 | -3%
Clc1ccc2nnc(Cl)n2n1 | -1.4% | 0% | 5 | 8%
Cc1ccc(-n2nc3c(=O)n(CCCC(=O)NCc4ccc(Cl)cc4)nc(C)c3c2C)cc1 | 4.0% | -1% | x | -1%
CCOc1cc(OCC)c(C(C)=O)cc1OCC | 0.5% | 3% | x | x
COc1cc(/C=C2/C(=O)N(c3ccc(C)c(C)c3)N=C2C)cc([N+](=O)[O-])c1O | -1.5% | -4% | x | -1%
Cn1c(CCC(=O)OCC(=O)Nc2ccc(Oc3ccccc3)cc2)nc(=O)c2ccccc21 | -0.7% | 4% | -28 | -12%
COC(=O)c1ccccc1NC(=O)CSc1nc(NC(=O)c2ccccc2)c2c(C)c(C)oc2n1 | -2.5% | -7% | -7 | -1%
Cc1c(CCC(=O)NCCC(=O)O)c(=O)oc2c(C)c3oc4c(c3cc12)CCCC4 | 0.1% | -5% | x | 8%
Cc1cc(NC(=O)CCC(=O)N(CC2CCCO2)C(C(=O)NC2CCCC2)c2ccccc2C)no1 (configuration not stated) | 4.2% | -7% | x | x
CN(C)CCCNC(=O)C[C@H]1C[C@H](C(=O)N2CCCCC2)[C@@]2(C)c3[nH]c4cc(-c5ccco5)ccc4c3CCN2C1=O | 1.2% | -9% | x | x
CCn1c2ccccc2c2cc(NC(=O)COc3ccccc3OC)ccc21 | 0.3% | 11% | -5 | 22%
O=C(COc1ccc(Oc2ccccc2)cc1)NC1CCS(=O)(=O)C1 (configuration not stated) | 2.8% | -12% | x | x
CCc1ccc2c(c1)C(=O)c1ccccc1C2=O | 0.1% | 0% | -4 | -56%
CCn1c(NCCO)nc2c(c1=O)C(C)(CC)Cc1ccccc1-2 (configuration not stated) | -0.8% | -14% | 14 | 4%
COc1ccc(Cl)cc1NC(=O)C1COc2ccccc2O1 (configuration not stated) | -1.7% | 8% | -5[21.1 µM] | -30%
CCCCc1c(O)c2cccc3c2n(c1=O)CCC3 | 0.2% | 10% | x | x
COC(=O)c1cccc(NS(=O)(=O)c2ccc(OC)cc2)c1C | -2.3% | -10% | -2 | 13%
COc1ccc2c(c1OC)C(=O)OC2Nc1nc(-c2cc3ccccc3oc2=O)cs1 (configuration not stated) | u | -28% | -6 | -11%
COc1cccc(/C=N/NC(=O)Cn2ccnc2C)c1 | -0.1% | 10% | -7 | -3%
O=C(Nc1nccs1)NC(C(F)(F)F)C(F)(F)F | 1.7% | 11% | -25 | -1%
COc1ccc(CCNS(=O)(=O)c2cc3c4c(c2)CCN4C(=O)CC3)cc1OC | -1.4% | -18% | x | x
CCOc1ccc(CNC(=O)CCCC(=O)n2ncc3cc(C)ccc32)cc1 | -2.7% | 9% | x | -3%
CN(/N=C/c1ccc(-c2ccc([N+](=O)[O-])cc2)o1)c1ccccc1 | 12% | 8% | x | -3%
CCOC(=O)C(CC)Sc1nnc(COc2ccc(C)cc2)n1-c1ccccc1 (configuration not stated) | 0.5% | 12% | -18 | 2%
O=C(O)c1ccccc1C(=O)Nc1nccs1 | -5.5% | -13% | 7 | 0%
O=C(NNS(=O)(=O)c1ccc(F)cc1F)C1Cc2c(ccc3ccccc23)O1 (configuration not stated) | 6.1% | -10% | -14 | 3%
COC(=O)c1ccc(NC(=O)C2C3C=CC(C3)C2C(=O)O)cc1 (configuration not stated) | -0.1% | 2% | x | 0%
CCC(c1nnnn1Cc1ccccc1)N(Cc1cc2cc(OC)ccc2[nH]c1=O)CC1CCCO1 (configuration not stated) | -1.8% | 0% | 9 | -8%
O=[N+]([O-])c1ccc(C[n+]2cccc3c4ccccc4ccc32)cc1 | 6.8% | 12% | 7 | u
Cc1nc(-c2ccccc2)nn1-c1ccc([N+](=O)[O-])cc1 | -0.8% | -5% | x | x
CCCCCC(O)(CCCCC)C(=O)NNc1ccccc1 | -2.6% | -6% | -5 | 7%
COc1cccc(C(C(=O)NC(C)(C)C)N(C(=O)CCC(=O)Nc2cc(C)on2)C(C)(C)C)c1OC (configuration not stated) | -3.4% | 2% | -13 | -1%
Cc1cc(NC2=CC(=O)C(=O)c3ccccc32)no1 | 0.4% | 0% | x | x
CN(/N=C/c1ccc2c(c1)OCO2)c1nc(N2CCOCC2)nc(N2CCOCC2)n1 | 5.9% | 0% | 2 | 0%
O=C(NC1CCCCC1)C(c1ccccc1F)N(Cc1ccco1)C(=O)Cn1nnc2ccccc21 (configuration not stated) | -1.9% | 1% | 4 | -5%
NCCN1CCN(S(=O)(=O)c2ccc([N+](=O)[O-])cc2)C=C1c1ccc(Cl)cc1 | -0.8% | -7% | x | x
Cc1ccc2c(CN3CCC(C)CC3)cc(=O)oc2c1C | -6.0% | -23% | x | -64%
Nc1nc2ccc(C(=O)NCCOC(=O)C3CCCCC3)cc2s1 | 0.5% | -1% | 3 | -3%

The closing 6 compounds of the part before are carried over, then new ones follow.
SMILES | Rango-impB inh | Rango release inh | GLA inh pH 4.5 | miR-21 reporter
Cc1cc(NC2=CC(=O)C(=O)c3ccccc32)no1 | 0.4% | 0% | x | x
CN(/N=C/c1ccc2c(c1)OCO2)c1nc(N2CCOCC2)nc(N2CCOCC2)n1 | 5.9% | 0% | 2 | 0%
O=C(NC1CCCCC1)C(c1ccccc1F)N(Cc1ccco1)C(=O)Cn1nnc2ccccc21 (configuration not stated) | -1.9% | 1% | 4 | -5%
NCCN1CCN(S(=O)(=O)c2ccc([N+](=O)[O-])cc2)C=C1c1ccc(Cl)cc1 | -0.8% | -7% | x | x
Cc1ccc2c(CN3CCC(C)CC3)cc(=O)oc2c1C | -6.0% | -23% | x | -64%
Nc1nc2ccc(C(=O)NCCOC(=O)C3CCCCC3)cc2s1 | 0.5% | -1% | 3 | -3%
CC(=O)/C(=N/Nc1ccc(Br)cc1)N1CCCc2ccccc21 | -0.5% | 27% | -8 | 8%
O=C(O)CCn1cc(C2CC(c3ccccc3)=NN2c2ccccc2)c(-c2ccccc2)n1 (configuration not stated) | u | u | u | -6%
Cc1[nH]nc2nc(SCC(=O)NC3CCCCC3)n(-c3ccc(Br)cc3)c(=N)c12 | 0.2% | -6% | x | 0%
CCOc1ccc(S(=O)(=O)N2CCC(C(=O)NC3CCCC3)CC2)cc1 | 5.3% | -1% | x | 3%
C/C(=N\NC(=O)c1ccco1)c1cccc2ccccc12 | -1.3% | 2% | x | -8%
CC12CCC(=O)N1C(C(=O)Nc1nc(-c3cc(F)ccc3F)cs1)CS2 (configuration not stated) | -3.7% | -1% | x | x
CCC(=O)N1c2ccc(S(=O)(=O)NCCc3ccc(C)cc3)cc2CC1C (configuration not stated) | -1.1% | u | x | -6%
NC(=O)c1nsc(C(=O)N(c2ccccc2)C(C(=O)NCC2CCCO2)c2ccc3ncccc3c2)c1N (configuration not stated) | -1.7% | u | x | 7%
Cc1cc(C)nc(N2CCC(C(=O)NC3CCCCCC3)CC2)n1 | -2.6% | -14% | x | x
COc1ccc(N2CCN(C(=O)CNC(=O)c3cccs3)CC2)cc1 | 1.4% | 14% | x | -2%
Cc1ccsc1C(=O)N1CCN(c2ccccn2)CC1 | -0.1% | -14% | x | -3%
Cc1ncc(CSc2ccc(Cl)cc2)c(CO)c1O | -0.3% | 2% | x | -8%
CCOC(=O)C(C)Sc1nc2c(c(-c3cccs3)c1C#N)CCC2 (configuration not stated) | u | u | -13 | -11%
O=C(/C(=N/O)c1ccccc1)c1ccccc1 | -3.0% | 0% | x | x
CSc1ccc(S(=O)(=O)N2CCCC2)cc1 | -2.8% | 11% | -17 | -2%
C=CCN(CC=C)C(=S)NC(=O)/C=C/c1ccccc1 | -0.6% | 1% | -1 | -10%
O=C(CN1c2cccc3cccc(c23)S1(=O)=O)NCCc1ccccc1 | -1.5% | -13% | x | x
O=[N+]([O-])c1ccc2[nH]c3c(c2c1)CCCC3O (configuration not stated) | -0.7% | 0% | 0 | -4%
O=C(NCC1CCCO1)c1cc(-c2ccccc2)nc2ccc(Br)cc12 (configuration not stated) | 3.8% | 7% | x | -8%
Cc1cccc(NC(=O)NC(=O)c2ccccc2)n1 | -3.6% | 8% | -1 | -33%
COc1ccc(NC(=S)N2CCN(S(C)(=O)=O)CC2)cc1OC | -0.1% | 14% | x | -5%
Cc1c(C(=O)N(Cc2ccc(N(C)C)cc2)CC2CCCO2)oc2ccccc12 (configuration not stated) | -0.4% | 13% | x | 5%&10%
Cc1nn(-c2ccccc2)cc1C(=S)Nc1ccccc1 | 1.9% | -6% | -9 | -59%
COc1ccc(OC)c(N/C(C)=C/C(=O)c2ccccc2)c1 | -4.1% | -9% | 2 | -85%
CNc1ccccc1C(C)(C)c1cc(-c2cccc(OC)c2)no1 | 0.5% | 16% | 1 | 15%
Cc1cc(N2C(=O)C3C4CC(c5ccccc5)C(C4)C3C2=O)no1 (configuration not stated) | -2.5% | -2% | 2 | 0%
Cc1c(Cl)cccc1-n1c(-c2cccnc2)n[nH]c1=S | 0.0% | 1% | -1 | -6%
COc1cccc(Nc2nc3ccccc3nc2-n2nc(C)cc2C)c1 | -4.6% | -14% | 3 | -1%
CCC(C)NC(=O)C(=O)NC1CCCC1 (configuration not stated) | 2.3% | 12% | -6 | -6%
O=C(O)COc1c(Cl)cc(/C=C2/NC(=O)NC2=O)cc1Br | -1.6% | -16% | -4 | 1%
CCOc1cc(/C=C2\C(=O)ON=C2c2ccccc2)cc(Br)c1O | 1.1% | 9% | x | -2%
O=C1/C(=C/c2cccnc2)N=C2CCCCCN12 | -3.0% | -5% | 1 | -3%
Cn1c(CNC(=O)CNS(=O)(=O)c2ccccc2)cc(=O)n(C)c1=O | 0.2% | 4% | x | 1%
Cc1cc(Cl)ccc1OCCCC(=O)NCc1ccncc1 | -1.7% | 10% | 5 | -2%
CCOC(=O)C1CCN(C(=S)Nc2cccc(C)c2C)CC1 | 0.9% | 0% | -1 | -6%
CC(C)NS(=O)(=O)c1ccc(OCC(=O)NC(C)c2ccccc2)cc1 (configuration not stated) | -3.5% | 0% | 3 | -3%
CCCSc1nc2c(=O)[nH][nH]c(=O)c2n1Cc1ccccc1 | -2.4% | -7% | 1 | -8%
C=CCn1c(SCC(=O)Nc2cccc(OC)c2)nnc1-c1cccnc1 | -3.1% | -16% | 12 | -19%
NC(=O)c1cc(NC(=O)CCNS(=O)(=O)c2cccc(C(F)(F)F)c2)cc(C(N)=O)c1 | -1.4% | -3% | x | -4%
CCn1cc(CNC(=O)C2CCC(=O)N(C3CCCCCC3)C2)cn1 (configuration not stated) | -0.6% | -15% | x | -6%
Cc1cc2ncn(-c3nnnn3-c3ccccc3)c2cc1C | -1.6% | 2% | -4 | -14%
Cc1sc2nc(SCC(=O)N3CCOCC3)[nH]c(=O)c2c1C | 1.2% | 27% | 5 | -10%
Cc1ccccc1NC(=O)COc1coc(CN2CCN(Cc3ccccc3)CC2)cc1=O | 0.9% | -17% | x | x
CCOC(=O)C1=C(CSc2nc3c(cc2C#N)CN(C)CC3)OC(N)=C(C#N)C1c1ccccc1 (configuration not stated) | u | u | -1 | -7%
CN(C(=O)c1cccc(NC(=O)Cc2ccc(NC(=O)C3CCN(C(=O)C4CC4)CC3)cc2)c1)C1CCCC1 | 4.3% | 28% | x | x
O=C(NCC1CCCN1S(=O)(=O)c1cccs1)c1cccc([N+](=O)[O-])c1 (configuration not stated) | -1.4% | -10% | x | x
COCCNC(=O)C12CC3CC(CC(Cl)(C3)C1)C2 | 2.6% | 3% | -4 | -1%
Cn1c(=O)c2ncn(CC(=O)Nc3nc(-c4ccc(Cl)cc4)cs3)c2n(C)c1=O | 0.8% | 9% | -6 | -2%

Bioassay records: PubChem, National Center for Advancing Translational Sciences (NCATS)
